High-throughput results deposited in PubChem BioAssay by National Center for Advancing Translational Sciences (NCATS).
ClpP mod – qHTS Assay for Activators of ClpP | ATP-dependent Clp protease proteolytic subunit (Bacillus subtilis (strain 168)), P80244 | purified B. subtilis ClpP, FRET peptide cleavage, 20 min | Potency, µM (top dose mostly 57.5 µM), for the others: at the highest dose activity change, negative = active | 1.9% of 340,000 active | AID 651965, 2013; active = well fitted falling curve with a large enough effect; inconclusive = small, poorly fitted or top-dose-only effect; inactive = no such curve, though single readings can be large or run the other way; further: potency means the concentration at half of the fitted maximal effect; the source files actives as falling curves though it sought activators and does not explain the sign; nearly all actives have a fitted effect of over 65% in size; many hits overshoot -100%
Target sequence (P80244 whole entry, looked up): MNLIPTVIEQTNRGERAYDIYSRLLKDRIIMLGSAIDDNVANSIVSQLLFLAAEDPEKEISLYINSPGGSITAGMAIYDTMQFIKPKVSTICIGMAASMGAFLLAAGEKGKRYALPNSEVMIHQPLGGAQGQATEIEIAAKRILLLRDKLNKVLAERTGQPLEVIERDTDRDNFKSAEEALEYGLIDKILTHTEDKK
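Buffer: 100 mM Tris/HCl pH8, 100 mM KCl, 0.05% low protease BSA, 2.5% glycerol, 0.01% Tween-20. ClpP 10 microg/mL final; 20 min RT; delta FRET normalized to ADEP and DMSO controls.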
CtBP-E1A blk – inhibitors of CtBP/E1A interaction; AlphaScreen GST-E1A/His-CtBP binding, 1536-well; active compounds read low; control for the full effect not named in the record; 0.49% of 340,000 active; activity change, % (test concentration not listed); in the data active means activity change below about -65%; inconclusive means about -30% to -65%; inactive means above about -30%; further: on the % scale 0 is the no-effect control and ±100 the full control effect
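Homogeneous bead-based format: GST-tagged E1A captured on glutathione donor beads, His-tagged CtBP on nickel acceptor beads; compounds precede bead addition by 2 h at 37 °C.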
* = called active by the depositor; ? = inconclusive.

SMILES | ClpP mod | CtBP-E1A blk
Cn1c(=O)c2cc(NC(=O)NCCc3cccs3)ccc2n1C/C=C/c1ccccc1 | 5.2% | -9
Oc1ccccc1-c1cnc2cccnn12 | -2.2% | 0
CCOC(=O)N1CCN(C(=O)C[C@@H]2C[C@@]3(C(=O)OC)CC(C)(C)CC=C3N(Cc3ccco3)C2=O)CC1 | 1.1% | 1
OCCc1ccc(NCCc2cccs2)cc1 | -1.0% | 1
Cn1ccc2c(/C=C/c3ccc(F)cc3)cc3c(c21)C1CCC3O1 (stereo unspecified) | 5.4% | 29
CC(C)c1ccc(NC(=O)N2CCc3nc(NCc4cccc(Oc5ccccc5)c4)ncc3C2)cc1 | -27% | -12
COc1cc(OC)cc(C2=Cc3ccc(OC)cc3C(CC(C)=O)N2c2ccc(C#CC3(O)CCCCC3)cc2)c1 (stereo unspecified) | 4.3% | 3
O=C(OCc1ccccc1)N1C=CCC[C@@H]1c1c(Cl)cccc1Br | 0.7% | 31
CCCNC(=O)C1(C)CCCN(C(=O)c2cc(C)nn2C(C)(C)C)C1 (stereo unspecified) | -0.7% | -1
COc1ccc(N2C(=O)c3ccccc3NC(=O)C2C(=O)Nc2ccc3c(c2)OCCO3)cc1 (stereo unspecified) | -17% | 0
Cc1ccc(CNC(=O)c2[nH]c(C(F)(F)F)nc2-c2ccccc2)cc1 | -2.4% | -6
CC(=O)C1=CCC(c2ccccc2)N(S(=O)(=O)c2ccc(C)cc2)C1 (stereo unspecified) | -14% | -5
CCCCC(c1nc2ccccc2[nH]1)N(C(=O)c1ccccc1)c1ccccc1[N+](=O)[O-] (stereo unspecified) | -10% | 1
Cc1ccccc1-c1cc2nc(NCc3ccccc3)n(C)c(=O)c2s1 | -20% | -20
O=C(Nc1cccc(Cl)c1)Nc1nnc([C@H]2C[C@H](O)[C@@H](CO)O2)s1 | -5.0% | 1
CN(C)C(=O)c1cc2c(c(-c3cccc(C4=CCCCC4)c3)n1)[C@@H](CCO)N(S(=O)C(C)(C)C)C2 (stereo partly specified) | -0.6% | 1
CC1(C(=O)NS(=O)(=O)c2cccs2)CCN1C(=O)C1(c2ccccc2)CCCC1 (stereo unspecified) | 0.6% | 5
CCCCNC(=O)C[C@@H]1C[C@@]2(C(=O)OC)CCCCC=C2N(CCc2ccc(OC)c(OC)c2)C1=O | -2.5% | 0
CC1(Cc2cc(Cl)ccc2C(F)(F)F)C(=O)Nc2ccc(S(=O)(=O)NC3CCCCC3)cc21 (stereo unspecified) | 0.3% | -5
Cn1c(=O)c2cc(NC(=O)CCc3ccc4c(c3)OCO4)ccc2n1Cc1ccc(F)cc1 | 4.6% | -13
COC(=O)[C@@]12C[C@@H](CC(=O)NCc3ccc(OC)c(OC)c3)C(=O)N(Cc3ccco3)C1=CCC(C)(C)C2 | 0.2% | -8
CCCCNC(=O)C[C@@H]1C[C@@]2(C(=O)OC)CC(C)(C)CC=C2N(Cc2ccco2)C1=O | 0.4% | 2
O=C(Nc1ccc(Cl)cc1)c1csc([C@@H]2O[C@H](CO)[C@H](O)[C@H](O)[C@H]2O)n1 | 2.1% | 0
CCc1ccc2c(c1)NC(=O)C2(C)Cc1ccc(F)cc1 (stereo unspecified) | 0.3% | -1
O=C(C=CC(=O)Nc1ccc(F)cc1F)Nc1ccc(F)cc1F | 0.9% | 4
Nc1nc(CSc2nnnn2-c2ccccc2)nc(Nc2ccccc2)n1 | -2.3% | 5
COc1ccccc1C(C(=O)c1ccccc1)c1ccc2ccccc2c1 (stereo unspecified) | -5.4% | -17
O=C(NC1CCCC1)C1c2ccccc2OCC(=O)N1Cc1cccnc1 (stereo unspecified) | -7.0% | -24
Clc1ccccc1-c1cccc2nccn12 | 4.7% | 23
CCCc1nc2ccccc2n1C(C(=O)NC(C)(C)C)C1CC1 (stereo unspecified) | 1.9% | -28
NC(Cc1ccc(F)cc1)c1csc(Nc2cc(NCc3ccco3)ncn2)n1 (stereo unspecified) | -2.4% | -76*
Cc1cccc(COC[C@H](CC(C)C)N2CCN(C(=O)c3ccc(C(F)(F)F)cc3)CCC2=O)c1 | 0.6% | 0
CC1(C(=O)Nc2ccc3c(c2)OCO3)Cc2c(-c3cccc(C(N)=O)c3)ccnc2O1 (stereo unspecified) | -1.6% | -4
O=C(Nc1cccc(S(=O)(=O)N2CCCC2)c1)[C@@H]1O[C@H](CO)[C@@H](O)[C@H]1O | 0.6% | 10
OC(c1ccccc1)(c1nc(-c2csc3ccccc23)cs1)C(F)(F)F (stereo unspecified) | 0.6% | 8
Cc1ccc2c(CN3CCN(c4ccccc4)CC3)cc(=O)oc2c1 | -2.0% | 9

2 entries from above, as labelled records:
> CCOC(=O)N1CCN(C(=O)C[C@@H]2C[C@@]3(C(=O)OC)CC(C)(C)CC=C3N(Cc3ccco3)C2=O)CC1
  ClpP mod: 1.1%
  CtBP-E1A blk: 1

> OCCc1ccc(NCCc2cccs2)cc1
  ClpP mod: -1.0%
  CtBP-E1A blk: 1

(more compounds)
SMILES | ClpP mod | CtBP-E1A blk
Cc1ccc(S(=O)(=O)N2C[C@H]3C(=O)C[C@@H](c4ccccc4)N(S(=O)(=O)c4ccc(C)cc4)[C@H]3C[C@H]2c2cccc3ccccc23)cc1 | -0.3% | 0
CC(C)c1ccc([C@@H]2O[C@H](CCc3ccccc3)Cc3[nH][nH]c(=O)c32)cc1 | -1.3% | 4
O=C(Nc1ccc(OC(F)(F)F)cc1)N1CCc2nc(NCc3cccc(Oc4ccccc4)c3)ncc2C1 | -21% | -4
COc1cc(OC)cc(C2=Cc3ccccc3C(CC(=O)c3ccco3)N2c2ccc(-c3cccnc3)cc2)c1 (stereo unspecified) | -15% | -12
NC(=O)c1ccc(Nc2nc(C(N)COCc3ccccc3)cs2)cc1 (stereo unspecified) | -21% | -23
N#CC(=Nc1cccc(F)c1)C1=C(O)c2ccccc2C1=O | -1.7% | 1
Nc1nc2c(ncn2[C@@H]2O[C@H](CNS(=O)(=O)N3CCCC3)[C@@H](O)[C@H]2O)c(=O)[nH]1 | 0.1% | 0
COc1ccc(C=C2SC(=S)N(CCCC(=O)Nc3ccc(C(=O)O)c(O)c3)C2=O)cc1OC | 0.9% | -20
CCNC(=O)c1cc2c(c(-c3cccc(-c4cccc(C(=O)N(C)C)c4)c3)n1)[C@H](CCO)N(S(=O)C(C)(C)C)C2 (stereo partly specified) | -0.9% | -19
CC(C(=O)NC1CCCC1)n1c(C2CCCC2)nc2ccccc21 (stereo unspecified) | 0.9% | 4
COc1ccc(S(=O)(=O)N2CCC3CC2c2cc(-c4ccc5c(c4)OCO5)ccc23)cc1 (stereo unspecified) | -14% | 2
O=C(NCCc1c[nH]c2ccccc12)c1[nH]c(C(F)(F)F)nc1-c1ccccc1 | -2.5% | -20
CCc1ccc2cc3c(cc2n1)C(=O)c1ccccc1-3 | 2.7% | -16
CCOC(=O)C1=CCC(c2ccc(CC)cc2)N(S(=O)(=O)c2ccc(C)cc2)C1 (stereo unspecified) | 0.1% | 19
COc1ccc(C(=O)C(=O)N2CCN(C(=O)OCc3ccccc3)CC2)cc1 | -2.4% | 5
COc1ccccc1C=C(C(=O)c1ccccc1)c1ccccc1 | -5.4% | -13
O=C(NCC(F)(F)F)c1csc([C@@H]2O[C@H](CO)[C@H](O)[C@H](O)[C@H]2O)n1 | -0.7% | 10
COCCCN1C(=O)C(CC(=O)NCCCN(C)C)CC(C(=O)N2CCOCC2)=C1C (stereo unspecified) | -0.4% | 5
CCCCNC(=O)C1(C)CCN1C(=O)CSc1ccccc1 (stereo unspecified) | -1.3% | 0
O=[N+]([O-])c1ccc(C=Nc2ccccc2)cc1 | 1.6% | -10
COc1ccc(CC(N)c2csc(NC(=O)Nc3ccccc3-c3ccccc3)n2)cc1 (stereo unspecified) | -29% | -6
COC(=O)C[C@@H]1C=C[C@H](NC(=O)c2ccccc2)[C@@H](CO)O1 | -1.2% | 7
CCc1nc2ccc(C(=O)NCCOc3ccc(OC)cc3)cn2c1N(C)Cc1ccc(N(C)C)cc1 | -0.7% | ?
COc1ccc(Cc2c(C3CCCCC3)nc3c(C)cc(Br)cn23)c(C)c1 | -8.3% | 0

In another format: 4 of the compounds above
CCc1ccc2cc3c(cc2n1)C(=O)c1ccccc1-3
  ClpP mod = 2.7%
  CtBP-E1A blk = -16

COCCCN1C(=O)C(CC(=O)NCCCN(C)C)CC(C(=O)N2CCOCC2)=C1C (stereo unspecified)
  ClpP mod = -0.4%
  CtBP-E1A blk = 5

CCOC(=O)C1=CCC(c2ccc(CC)cc2)N(S(=O)(=O)c2ccc(C)cc2)C1 (stereo unspecified)
  ClpP mod = 0.1%
  CtBP-E1A blk = 19

COc1ccc(Cc2c(C3CCCCC3)nc3c(C)cc(Br)cn23)c(C)c1
  ClpP mod = -8.3%
  CtBP-E1A blk = 0

Other results follow:
SMILES | ClpP mod | CtBP-E1A blk
OC(Cc1cccc(Br)c1)c1ncc(-c2cccc(C(F)(F)F)c2)[nH]1 (stereo unspecified) | -1.8% | -11
COC(=O)c1cnc(Nc2nc(C(N)Cc3ccc(OC)cc3)cs2)nc1C(F)(F)F (stereo unspecified) | -3.1% | -25
C[C@H](c1ccccc1)N1C[C@@H](COCc2ccccc2)Oc2cc(N3CCC[C@H]3CO)ccc2S1(=O)=O | -24% | -8
CCCCn1nnnc1C1(C)CCC(=O)N1CCCn1ccnc1 (stereo unspecified) | -2.8% | 8
CCCS(=O)(=O)NC(=O)C1(C)CCN(C(=O)c2ccccc2OC)C1 (stereo unspecified) | -4.0% | -19
COc1ccc(OCCN2CCC(C(=O)NC(c3ccc(Cl)cc3)c3cnccn3)CC2)cc1 (stereo unspecified) | -2.1% | -9
CC(C)(C)n1nnnc1C(c1cc2ccccc2o1)N1CCOCC1 (stereo unspecified) | -5.8% | -10
COc1ccc(-c2cc3nc(NCCCN(C)C)n(C)c(=O)c3s2)cc1OC | 5.0% | -6
CCCCNC(=O)c1nc(C2CCN(S(=O)(=O)c3cccc(C(F)(F)F)c3)CC2)oc1-c1cccc(C(F)(F)F)c1 | -26% | 9
CCOC(=O)C1=CCN(S(=O)(=O)c2ccc(C)cc2)[C@H]1c1ccccc1Cl | -8.1% | 3
CC1(C)OC(=O)C2=C(C[C@@H](CCc3ccccc3)O[C@@H]2c2ccc(F)cc2)O1 | 1.7% | 2
COc1ccccc1-c1cc(NC(C)=O)c2ncc(-c3ccccc3)n2c1 | 4.7% | 2
CC(C)C[C@H]1CNC(=O)C(=O)N1C[C@@H]1CCCN1C[C@H](Cc1ccc(O)cc1)N1C[C@H](Cc2ccccc2)N(CC2CCCCC2)C(=O)C1=O | 0.9% | 2
COC(=O)c1ccc2nc(-c3ccc(F)cc3)c(Cc3ccccc3C(F)(F)F)n2c1 | -0.4% | 0
CC1=C(C(=O)N2CCCCCC2)CC(CC(=O)NCCN2CCOCC2)C(=O)N1Cc1ccc(C(C)(C)C)cc1 (stereo unspecified) | -0.8% | 3
CCc1nc2c(OCc3ccc(Cl)cc3Cl)cccn2c1N(C)C(=O)c1ccccc1F | -3.7% | -11
Cc1ccc(F)c(S(=O)(=O)NC(=O)C2(C)CCN2C(=O)CCc2ccccc2)c1 (stereo unspecified) | -2.8% | -21
Cc1ccccc1C(NC(=O)C1CCN(Cc2ccc(Oc3ccccc3)cc2)CC1)c1ccsc1 (stereo unspecified) | 1.0% | 18
OCCN1CCN(c2ncnc3c2ncn3[C@H]2CN(Cc3ccc4c(c3)OCO4)C[C@@H](CO)O2)CC1 | 0.8% | 1
O=C(NCc1ccccc1)C1Cc2c(-c3cccc(F)c3)ccnc2O1 (stereo unspecified) | -5.2% | 2
Cc1ccccc1S(=O)(=O)NC(=O)C1(C)CCN1C(=O)c1ccccc1CCc1ccccc1 (stereo unspecified) | -3.8% | -8
CC1(C(=O)NCc2ccccc2)CSCC(=O)N1Cc1cccc(F)c1 (stereo unspecified) | 0.4% | 9
COc1ccc(-c2nc3c4ccccc4ccn3c2Cc2ccc(C)cc2)cc1OC | 5.2% | -13
COC(=O)C[C@H]1C=C[C@@H](NC(=O)Nc2cccc(OC)c2)[C@@H](CO)O1 | -1.8% | 3
NC(Cc1ccc(C(F)(F)F)cc1)c1csc(NC(=O)Nc2ccccc2Cc2ccccc2)n1 (stereo unspecified) | 0.2% | 1
CCOc1ccc(CCN2C(=O)C(=O)N([C@@H](CC(C)C)CN3CCC[C@H]3CN3C(=O)C(=O)NC[C@@H]3Cc3ccccc3)C[C@@H]2Cc2ccccc2)cc1 | -2.0% | -25
CCCCn1nnnc1C(c1cc2ccccc2o1)N(C)CCc1ccccc1 (stereo unspecified) | -5.2% | 6
O=C(Nc1ccc(Cl)cc1)c1csc([C@H]2C[C@H](O)[C@@H](CO)O2)n1 | 0.0% | -7
CCCCNC(=O)C1c2ccccc2OCC(=O)N1C1CC1 (stereo unspecified) | -0.7% | 5
OCCCCCCNc1ccc(CCO)cc1 | 0.4% | 4
CC(=O)Nc1ccc(CNc2nc3cc(-c4cccc(C(F)(F)F)c4)sc3c(=O)n2C)cc1 | -13% | 1
CCCC(=O)N1CCC1(C)C(=O)Nc1ccc(OC(F)F)cc1 (stereo unspecified) | -0.5% | 7

Not all compounds are listed; rates above refer to the full screens.
